High-throughput results: PubChem BioAssay, National Center for Advancing Translational Sciences (NCATS)
Lassa entry inh – Lassa virus entry inhibition. hit rate 1.2% among 300,000. AID 540256. Potency, µM (highest dose often 37.9 µM), for inactives: at the top dose activity change, negative = inhibition, hits mostly inhibitors. Lassa virus pseudotype entry inhibition, cell reporter; control for the full effect not named in the record; active means well fitted inhibition curve with a large enough effect; inconclusive means small, poorly fitted or top-dose-only effect, or effect the other way; inactive means flat fitted curve, though single readings scatter; tested in HEK293 cells; note: % is set by controls: 0 for no effect and ±100 for the full control effect; nearly all actives have a fitted effect of over 50% in size; luciferase read-out
NS1 inh – blocks influenza NS1 protein function; S. cerevisiae slowed by influenza A NS1, growth recovery by OD600; hit rate 0.4% among 270,000; AID 2326; Potency, µM (titrated, usually from 46.1 µM), for inactives: at the top dose activity, positive = more growth; active means well fitted rising curve with a large enough effect; inconclusive means small, poorly fitted or top-dose-only effect; inactive means no such curve, though single readings can be large or run the other way; note: nearly all actives have a fitted effect of over 50% in size
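Recovery from NS1-induced slow growth read by OD600 in budding yeast switched to galactose assay medium (pH 6.0, -URA) at 1:100 dilution. Compound 23 nl per well; the matching strain lacking NS1 serves as control.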
2A StopGo – lowers the luciferase signal of an FMDV 2A StopGo reporter; human cells with a luciferase reporter of 2A StopGo recoding; control for the full effect not named in the record; Potency, µM (highest dose often 57.9 µM), without a hit: at the top dose signal change, negative = less light; hit rate 1.2% among 410,000; AID 1159524; active = well fitted falling curve with a large enough effect; inconclusive = small, poorly fitted or top-dose-only effect; inactive = no such curve, though single readings can be large or run the other way; tested in HEK293T cells; note: % is set by controls: 0 for no effect and ±100 for the full control effect; nearly all actives have a fitted effect of over 45% in size; luciferase light after 4 h
RE007 growth inh – less growth of the S. pombe RE007 Vpr strain | S. pombe RE007 Vpr strain, BacTiter-Glo ATP luminescence, 24 h; control for the full effect not named in the record | Potency, µM (titrated, usually from 92.2 µM), for inactives: at the highest dose activity change, negative = less growth | hit rate 0.21% among 360,000; active = well fitted falling curve with a large enough effect; inconclusive = small, poorly fitted or top-dose-only effect; inactive = no such curve, though single readings can be large or run the other way;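 note: % is set by controls: 0 for no effect and ±100 for the full control effect; nearly all actives have a fitted effect of over 50% in size; the assay follows cell death caused by Vpr and the record does not say whether a fall means rescue or toxicity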
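Fission yeast RE007 carrying one integrated HIV-1 vpr copy, seeded at OD 0.01 in PMG+AL medium with 23 nL pinned compound. Grown 24 h at 30 degrees; viability read by BacTiter-Glo luminescence after 5 min.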
Marburg entry inh – inhibitors of Marburg virus binding or cell entry | hit rate 1.8% among 300,000 | AID 540276 | Potency, µM (series often up to 37.8 µM), for inactives: at the highest dose activity change, negative = inhibition, usual class: inhibitors | Marburg virus pseudotyped entry inhibition, cell reporter; control for the full effect not named in the record; about a third of the inactives were read at about 46 µM; active = well fitted inhibition curve with a large enough effect; inconclusive = small, poorly fitted or top-dose-only effect, or effect the other way; inactive = flat fitted curve, though single readings scatter; tested in HEK293 cells; about a fifth of its hits are not listed in these tables; note: % is set by controls: 0 for no effect and ±100 for the full control effect; luciferase read-out
Starred values were filed as active, the others as inactive; ? = inconclusive; · = not tested or not shown; [ ] = remark or other dose. Potency is the fitted concentration of half-maximal effect. An excerpt (hit frequency here may not be typical).

No.	canonical_smiles	Lassa entry inh	NS1 inh	2A StopGo	RE007 growth inh	Marburg entry inh
1	COc1cc(C(=O)N2CCCCC2c2cc(C(=O)Nc3ccccc3)no2)cc(OC)c1C (stereo not drawn)	·	·	-4.0%	3.3%[18.4 µM]	·
2	CCOC(=O)[C@]12CCCC=C1N(CCC1=CCCCC1)C(=O)[C@H](CC(=O)NCCc1ccccc1OC)C2	·	·	-2.4%	0.0%	·
3	Cc1ccc(C(=O)OCC(=O)Nc2cccc(S(=O)(=O)N3CCCCC3)c2)s1	·	·	0.0%	-2.6%	·
4	CCc1nc2ccc(C(=O)NCCOc3ccc(OC)cc3)cn2c1N(C)Cc1ccc(OC)cc1	·	·	-29.3%	-19.9%	·
5	COCCNC(=O)C1CCCN(C(=O)c2csc3ccccc23)CC1 (stereo not drawn)	·	·	-2.2%	4.3%	·
6	Cc1ccc(F)c(C(=O)N2CCCC(C)(C(=O)NS(=O)(=O)C3CC3)C2)c1F (stereo not drawn)	·	·	-16.3%	9.0%	·
7	CNC(=O)C[C@H]1C(=O)N(c2ccccc2)C[C@@H]1C	·	·	-25.5%	-7.9%	·
8	CCN(CC(=O)NCc1cccs1)C(=O)/C=C/c1ccc(F)cc1	·	·	-20.6%	18.7%	·
9	COc1ccc(-c2c(C#Cc3ccccc3)c3ccccc3n2C)cc1	·	17.8%	63.6%[activator]	10.6%	·
10	COc1ccc(CCNC(=O)c2c[nH]c3ccc(F)cc3c2=O)cc1OC	·	19.5%	-17.5%	-9.8%	·
11	O=C1CN(C(=O)NCC(=O)N[C@H](C(=O)O)c2ccccc2)c2ccccc2N1	·	14.4%	-14.0%	11.0%	·
12	Cc1ccc(S(=O)(=O)NCCC2=CCCCC2)cc1C(N)=O	·	1.5%	10.9%	1.6%	·
13	CCc1ccccc1S(=O)(=O)Cc1ccc(C(=O)NC(C)C)o1	·	5.7%	-13.5%	13.8%	·
14	O=C(CN1CCOc2ccccc21)N1CCN(c2cccc(Cl)c2)CC1	·	-25.2%	-5.7%	-1.1%	·
15	O=Cc1c(NCc2ccccc2)c2ccccc2[nH]c1=O	·	-7.8%	4.6%	6.3%	·
16	CC(c1ccon1)N(C)C(=O)c1ccc2nc(Cc3cccc(Cl)c3)oc2c1 (stereo not drawn)	·	0.8%	1.2%	-1.1%	·
17	Cc1ccc(C(=O)N2CCC3(CC2)NCCc2[nH]cnc23)cc1	·	-2.7%	-7.6%	8.6%	·
18	OC(CNC1CCCC1)COc1ccccc1Br (stereo not drawn)	·	11.0%	-15.3%	-2.7%	·
19	COc1ccc(CNCc2cccc3ccccc23)cc1	·	-6.6%	38.6%[activator]	-4.7%	·
20	CCn1cc(C(=O)NC2CCCCCC2)c(=O)c2cc(S(=O)(=O)N3CCCCC3)ccc21	·	-47.5%	-29.9%	5.0%	·
21	O=C(Cn1nc(-c2ccccc2)ccc1=O)N1CCOCC1	·	15.8%	-1.2%	0.5%	·
22	Cc1oc(-c2cccc(Cl)c2)nc1CN1CCC(C(=O)N2CCN(c3ccccn3)CC2)CC1	·	-7.4%	20µM*	-6.4%	·
23	CCOc1ccc(CNC(=O)CCCn2nc(CC)n3c(cc4occc43)c2=O)cc1	·	0.9%	-10.5%	6.8%	·
24	CC(C)c1nc2oc3c(N4CCNCC4)ncnc3c2c2c1CCC2	·	3.16µM*	-14.1%	-12.1%	·
25	CC(NC(=O)c1ccc(Br)o1)C1CCCO1 (stereo not drawn)	·	5.5%	-21.2%	-1.2%	·
26	O=C(Nc1ccc(Cl)cc1)C1C2CCCCC21 (stereo not drawn)	·	14.4%	88.6%[activator]	6.4%	·
27	Cc1ccccc1Cn1c(=O)c2c(nc3n2CCN3Cc2ccco2)n(C)c1=O	·	27.2%	-17.0%	24.9%	·
28	COc1cccc(CNC(=O)C2CCCN(c3ncnc4c3nc3n4CCCCC3)C2)c1 (stereo not drawn)	·	-1.5%	-24.8%	-0.2%	·
29	COCCNC(=O)CN1C(=O)CSc2cc(S(=O)(=O)N3CCCCCC3)ccc21	·	21.4%	-14.9%	-12.6%	·
30	O=C(O)CCNC(=O)/C(=C\c1ccco1)NC(=O)c1ccco1	·	13.2%	-3.7%	14.3%	·
31	O=C(c1ccc(Br)o1)N1CCN(Cc2ccccc2Cl)CC1	·	-39.1%	-2.3%	3.3%	·
32	CCOc1cc2c(cc1OCC)C(c1ccc(O)c(OC)c1)NCC2 (stereo not drawn)	·	-32.9%	-13.4%	-11.7%	·

Some of the entries above, reformatted.
[2] CCOC(=O)[C@]12CCCC=C1N(CCC1=CCCCC1)C(=O)[C@H](CC(=O)NCCc1ccccc1OC)C2
[3] Cc1ccc(C(=O)OCC(=O)Nc2cccc(S(=O)(=O)N3CCCCC3)c2)s1

Assay by compound | 2 | 3
Lassa entry inh | · | ·
NS1 inh | · | ·
2A StopGo | -2.4% | 0.0%
RE007 growth inh | 0.0% | -2.6%
Marburg entry inh | · | ·

Next compounds follow.
No.	canonical_smiles	Lassa entry inh	NS1 inh	2A StopGo	RE007 growth inh	Marburg entry inh
33	O=C(C1=C(O)C(=O)N(CCN2CCOCC2)C1c1cccs1)c1cc2ccccc2o1 (stereo not drawn)	·	-3.7%	28.3%	-8.2%	·
34	COc1ccc(NC(=O)N(Cc2cccnc2)Cc2ccccc2Cl)c(OC)c1	·	-121.0%	-20.7%	-3.3%	·
35	CC(C)c1ccc(NC(=O)/C(C#N)=C/c2ccncc2)cc1	·	-6.5%	?	7.8%	·
36	CN(C)CCNC(=O)c1ccc(CS(=O)(=O)c2ccc(Br)cc2)o1	·	28.3%	-3.4%	16.5%	·
37	COC(=O)c1cc(S(=O)(=O)NCCc2sccc2C)c[nH]1	·	5.5%	66.4%[activator]	13.5%	·
38	O=C(Nc1cccc(Br)c1)c1ccc(CN2CCc3ccccc3C2)cc1	·	-69.2%	?	-2.6%	·
39	COC(=O)c1ccc2c(c1)NC(=O)C1CCCN21 (stereo not drawn)	·	?	-25.9%	-6.6%	·
40	COc1ccc(S(=O)(=O)Cc2ccc(C(=O)N3CCN(c4ncccn4)CC3)o2)cc1	·	19.0%	-29.8%	-4.0%	·
41	c1ccc2oc(-c3nn4c(Cn5cnc6ccccc65)nnc4s3)cc2c1	·	13.7%	-7.9%	8.6%	·
42	COc1cc2c(cc1OC)C(c1cc(C)ccc1C)CC(=O)N2 (stereo not drawn)	·	25.4%	0.0%	-0.3%	·
43	CS(=O)(=O)N(CC(=O)N1CCN(Cc2ccccc2)CC1)c1ccc(F)cc1	·	4.3%	-10.0%	-2.2%	·
44	O=C1CCN(Cc2ccccc2)CCN1[C@H](COc1ccccc1)c1ccccc1	·	13.6%	-18.4%	0.8%	·
45	Cc1cc(=O)n2nc(N3CCCC(C(=O)NCc4cccc(Cl)c4)C3)sc2n1 (stereo not drawn)	·	10.3%	-12.5%	0.2%	·
46	O=C(CCc1nnc2ccc(N3CCC4(CC3)OCCO4)nn12)NCc1ccccc1Cl	·	-2.2%	-14.8%	6.9%	·
47	CC(C(=O)Nc1ccccc1)C(=O)Nc1ccccc1	·	2.3%	-11.3%	8.4%	·
48	CCC1CCC(N2CCN(c3ccc(F)cc3)CC2)CC1 (stereo not drawn)	·	4.6%	-7.7%	0.3%	·

Four of the compounds above, in transposed form:
43: CS(=O)(=O)N(CC(=O)N1CCN(Cc2ccccc2)CC1)c1ccc(F)cc1
44: O=C1CCN(Cc2ccccc2)CCN1[C@H](COc1ccccc1)c1ccccc1
45: Cc1cc(=O)n2nc(N3CCCC(C(=O)NCc4cccc(Cl)c4)C3)sc2n1 (stereo not drawn)
46: O=C(CCc1nnc2ccc(N3CCC4(CC3)OCCO4)nn12)NCc1ccccc1Cl

| Compound | 43 | 44 | 45 | 46 |
| --- | --- | --- | --- | --- |
| Lassa entry inh | · | · | · | · |
| NS1 inh | 4.3% | 13.6% | 10.3% | -2.2% |
| 2A StopGo | -10.0% | -18.4% | -12.5% | -14.8% |
| RE007 growth inh | -2.2% | 0.8% | 0.2% | 6.9% |
| Marburg entry inh | · | · | · | · |

Further entries
No.	canonical_smiles	Lassa entry inh	NS1 inh	2A StopGo	RE007 growth inh	Marburg entry inh
49	C[C@@H](CC#N)CN1CC[C@H](C(C)(C)C)CCC1=O	·	9.5%	-1.1%	-0.7%	·
50	O=C(CSc1c2c(nc3ccc(Cl)cc13)CCCC2)N1CCN(C(=O)c2ccco2)CC1	·	-66.7%	25.1µM*	-0.3%	·
51	Cc1cc2c(Nc3cccc(O)c3)ncnc2s1	·	10.1%	8.4%	5.9%	·
52	Cc1noc(/C=C/N(C)C)c1S(=O)(=O)N1CCCC(C(=O)Nc2ccccc2F)C1 (stereo not drawn)	·	?	-4.2%	-5.4%	·
53	COc1cc(/C=C(\C#N)C(=O)N2CCCCC2)ccc1O	·	6.8%	40.8%[activator]	-12.4%	·
54	O=C(NCCc1ccc(Cl)cc1)C1CC(=O)N(C2CCCCC2)C1 (stereo not drawn)	·	-22.1%	-24.4%	8.9%	·
55	Cc1ccc(CNC(=O)Cn2cnc(S(=O)(=O)N3CCC(C)CC3)c2)o1	·	5.5%	-12.9%	0.6%	·
56	O=C(N/N=C/c1cccnc1)c1ccc2ccccc2c1O	·	-25.5%	48.9%[activator]	-25.3%	·
57	Cn1c(NCc2ccccc2Cl)nc2ccccc21	·	1.3%	25.2%	-23.1%	·
58	COc1ccc(CNC(=O)CNC(=O)c2cccs2)c(OC)c1	·	9.8%	6.2%	1.0%	·
59	Brc1ccc(-c2nnc3sc(CN4CCc5ccccc5C4)cn23)cc1	·	5.2%	-19.8%	5.2%	·
60	CC1CCCCC1NC(=O)CCNS(=O)(=O)c1ccc2c(c1)CCC(=O)N2 (stereo not drawn)	·	13.6%	-6.2%	3.5%	·
61	Cc1cccc(NC(=O)N2CC3CC(C2)c2cccc(=O)n2C3)c1 (stereo not drawn)	·	-2.2%	2.3%	-10.6%	·
62	Cc1cc(C)nc(-n2nc(C)cc2NC(=O)c2cc3ccccc3oc2=O)n1	·	-6.4%	-25.1%	5.1%	·
63	Cc1cccc2nc(Cn3c(=O)n(CCC(=O)NCc4ccco4)c(=O)c4ccccc43)cc(=O)n12	·	-1.8%	18.1%	-3.2%	·
64	O=C(CC1Oc2ccccc2NC1=O)NCCCN1CCN(C2CCCCC2)CC1 (stereo not drawn)	·	-6.6%	-14.1%	5.1%	·
65	O=C(NNS(=O)(=O)c1ccccc1)c1ccc([N+](=O)[O-])cc1	·	5.4%	3.0%	4.9%	·
66	COc1ccc(-c2noc(CNC(=O)C(C)Oc3ccccc3)n2)cc1 (stereo not drawn)	·	-16.4%	-29.2%	3.4%	·
67	O=C(O)c1cccc(NC(=O)c2ccccc2)c1	·	16.4%	-6.3%	14.3%	·
68	CCc1ccc(C2CC(c3ccc(C)cc3)n3nc(N)nc3N2)cc1 (stereo not drawn)	·	-1.1%	-7.5%	8.7%	·
69	CCCC(=O)Nc1cc(C)c(O)c(-c2nc3ncccc3o2)c1	-10.1%[46.1 µM]	·	-2.7%	·	-23.8%[46.1 µM]
70	CC(=O)Nc1ccc(S(=O)(=O)NC2(C(F)(F)F)C(=O)Nc3c2c(=O)[nH]c(=O)n3-c2ccc(C)c(C)c2)cc1 (stereo not drawn)	-1.8%[46.1 µM]	·	0.4%	·	-1.8%[46.1 µM]
71	Cc1ccc(-c2cc(C(F)(F)F)n3nc(C(=O)Nc4ccc(C#N)cc4)cc3n2)cc1	18.6%[46.1 µM]	·	-9.8%	·	10.3%[46.1 µM]
72	CCOc1ccc(S(=O)(=O)Nc2cccc(OC)c2)c2cccnc12	-13.0%[46.1 µM]	·	69.4%[activator]	·	3.4%[46.1 µM]
